# Vif A3G = HIV-1 Vif–A3G interaction blockers – biochemical, TR-FRET, GST-Vif 1-94, biotin-A3G peptide, dose response retest, primary screen (AID 1117319); TR-FRET GST-Vif / biotin-A3G peptide binding; higher % means a stronger effect; test concentration not given here; strong numbers were not always called active; inhibition, %, or IC50 in µM where a hit was titrated; 0.57% of 260,000 active;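 active = above the screen mean plus three standard deviations and confirmed in dose response; inconclusive = results disagree or hit not tested in dose response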;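 note: Vif residues 1-94 fused to GST binding biotinylated APOBEC3G peptide 110-148; 0% = full assay without inhibitor and 100% = GST in place of GST-Vif; retest series ran down from 100 µM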
# Ecoli growth = E. coli growth inhibition | Escherichia coli growth, OD600, 23 h; hits give low values | OD600 absorbance (concentration not given with the values) | 0.21% of 330,000 active | AID 1053175;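 active = OD600 absorbance below the run mean of sample wells minus 3.6 SD, in any replicate, cut at about 0.56 in these data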;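 note: stock transfer was 300 nL into about 60 µL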
# FGF22 binding = FGF22 (human) thermal shift binding; 1.5% of 340,000 active; recombinant FGF22 thermal shift, SYPRO orange fluorescence; percent of sucrose octasulfate shift, DMSO zero; AID 651658; Q9HCT0; calls only at 9.99 µM;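 active = melting point raised past a set limit in the mean and every replicate; inconclusive = no clear call; three in four hits are not shown here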
# Target sequence (Q9HCT0 whole entry, looked up): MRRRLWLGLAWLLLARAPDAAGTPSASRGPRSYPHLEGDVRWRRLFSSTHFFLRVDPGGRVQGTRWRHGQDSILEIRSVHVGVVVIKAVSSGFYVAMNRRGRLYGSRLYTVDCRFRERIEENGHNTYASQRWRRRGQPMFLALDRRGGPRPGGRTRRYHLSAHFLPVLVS
# ALR inh = inhibitors of human sulfhydryl oxidase ALR | P55789 | purified ALR, DTT oxidation, H2O2 HRP-luminol luminescence | inhibition, % (concentration not given with the values) | 3.8% of 290,000 active | AID 485317;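 active = mean and each replicate at 75% or more; inconclusive = only one of the two met; inactive = neither met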;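 note: stock transfer was 7.5 nL into about 7.5 µL; 0% = neutral wells and 100% = wells with inactivated enzyme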
# Target sequence (P55789 whole entry, looked up): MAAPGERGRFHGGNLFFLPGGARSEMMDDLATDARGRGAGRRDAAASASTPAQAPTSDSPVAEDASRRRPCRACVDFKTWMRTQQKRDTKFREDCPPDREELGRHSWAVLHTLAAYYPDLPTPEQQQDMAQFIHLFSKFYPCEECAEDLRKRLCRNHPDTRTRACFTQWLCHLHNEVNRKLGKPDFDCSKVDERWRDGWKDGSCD
# Ecoli rRNA inh = inhibitors of bacterial rRNA selective over humanized ribosomes; GFP signal change (wild-type ribosome), % (test concentration not listed); E. coli WT GFP vs humanized-ribosome RFP mutants, fluorescence, 24 h; hits give low values; DMSO median 0, no signal -100; 1.6% of 350,000 active; AID 720706;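 active = significant combined selectivity score with lowered wild-type GFP, culture density cut under 30%, mutant RFP and density less affected; inactive = any of these conditions unmet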; note: one replicate is shown; some compounds called inactive have numbers as strong as hits
# AF4-AF9 inh = MLL-AF4/AF9 protein interaction inhibition; P42568; AlphaScreen, biotin-AF4 peptide binding to FLAG-AF9; inhibition, % at 10 µM; 0.47% of 350,000 active;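 active = every replicate reaching a set inhibition limit, whatever the replicate mean, cut at about 25% in these data; inconclusive = mean inhibition reaches that limit but some replicates miss it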;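 note: 0% = plate neutral control median and 100% = total signal loss; the record names both 10 and 1 µM as test concentration; the first replicate is given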
# Target sequence (P42568 whole entry, looked up): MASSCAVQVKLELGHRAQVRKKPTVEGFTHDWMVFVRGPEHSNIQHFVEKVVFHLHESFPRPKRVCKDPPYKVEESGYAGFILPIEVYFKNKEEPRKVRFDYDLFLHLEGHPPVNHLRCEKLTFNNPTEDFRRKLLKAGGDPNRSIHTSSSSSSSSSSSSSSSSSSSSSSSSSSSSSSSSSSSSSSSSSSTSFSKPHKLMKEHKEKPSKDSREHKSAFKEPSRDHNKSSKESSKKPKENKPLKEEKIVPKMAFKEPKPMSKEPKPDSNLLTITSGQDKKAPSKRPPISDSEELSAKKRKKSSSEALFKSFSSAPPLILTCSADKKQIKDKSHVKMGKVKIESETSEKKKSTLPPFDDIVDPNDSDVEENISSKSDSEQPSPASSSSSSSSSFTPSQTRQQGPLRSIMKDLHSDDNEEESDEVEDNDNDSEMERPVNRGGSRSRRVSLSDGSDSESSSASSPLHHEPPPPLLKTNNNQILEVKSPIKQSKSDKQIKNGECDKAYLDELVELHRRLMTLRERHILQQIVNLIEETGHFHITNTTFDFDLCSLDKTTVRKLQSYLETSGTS
# HNF4A DNA FP = change in binding of human HNF4 alpha to DNA; activity change, % at 10 µM; AID 1224865; HNF4a-FITC DNA binding, fluorescence polarization, 1 h; 0.3% of 360,000 active; in the data active = activity change above about 30%, passing the limit was not always enough;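 note: controls were the assay level and a saturating level of protein; the project sought stronger binding though the title names inhibitors; some compounds called inactive have numbers as strong as hits; positive values seem to mean higher polarization but the record does not say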
# Ecoli rRNA inh OD600 = also measured in Ecoli rRNA inh; calls as there; OD600 change, %; measured here: OD600 growth;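 optical density of the mix in the first replicate; 0 = DMSO median and -100 = no signal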
# Ecoli rRNA inh RFP = recorded beside Ecoli rRNA inh, whose call it bears; RFP signal change, %; measured here: RFP humanized mutant strains;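 first replicate; 0 = DMSO median and -100 = no signal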
# Active calls of the source: *; i = inactive; ? = inconclusive; . = no result given; & = joins results of further samples. A portion of the library (hit frequency here may not be typical).
no.	Structure	HNF4A DNA FP	Vif A3G	ALR inh	Ecoli rRNA inh OD600	Ecoli rRNA inh	Ecoli rRNA inh RFP	Ecoli growth	AF4-AF9 inh	FGF22 binding
1	O=C(OCC(=O)N1CCCCC1)c1ccc2ccccc2n1	-1.4	.	-10.8	5.0	3.1	-1.0	0.714	-2.1	i
2	CC1=C(C#N)C(c2ccc3ncccc3c2)C(C#N)=C(C)N1	0.0	-9.3%	-8.8	-7.9	17.3	27.2	0.698	-1.7	i
3	CNC[C@H]1Oc2ncc(-c3cccc(C(=O)N(C)C)c3)cc2C(=O)N([C@H](C)CO)C[C@H]1C	.	.	.	3.0	1.3	-1.0	.	-1.7	i
4	C(=C\c1ccccc1)/CN1CCN(C(c2cccc3ccccc23)c2nnnn2C2CCCC2)CC1 (stereo not drawn)	3.0	.	.	-17.8	-4.8	5.3	.	3.1	i
5	O=C(O)c1ccc(Nc2ccc(F)c(F)c2)c([N+](=O)[O-])c1	0.0	2.4%	5.2	-6.9	-10.5	-9.6	0.664	0.1	i
6	Cc1cc(=O)oc(C)c1C(=O)NCCC1=CCCCC1	-3.6	1.9%	-3.4	3.9	-8.8	4.7	0.73	.	.
7	CS(=O)(=O)N1CCCCN2[C@H](CO)[C@@H](c3ccc(C#Cc4ccccn4)cc3)[C@@H]2C1	.	.	.	4.1	0.4	-1.7	.	-7.3	i
8	COc1ccc(-c2ccccc2)cc1NC(=O)c1ccncc1	1.3	.	-2.8	14.0*	-31.3*	-4.2*	0.623	2.6	i
9	O=C(O)c1ccc(CSc2nnc(-c3ccccc3Br)o2)cc1	1.8	.	-1.1	-23.5	-21.1	-2.1	0.714	-1.7	i
10	CCN(CC)S(=O)(=O)c1cccc(N=Nc2c(O)c3ccccc3oc2=O)c1	0.0	-0.1%	9.1	9.1	5.7	-6.5	0.658	-1.1	i
11	COc1ccc(S(=O)(=O)N2CCN(c3ccc(C)cc3C)CC2)cc1OC	-1.7	-2.1%&-4.9%	-5.6	-10.9	-4.9	0.5	0.751	-3.3	.
12	O=C(NCCOc1ccc(F)cc1)c1ccccc1SCc1ccccc1	-0.9	.	-0.6	-13.5	-17.6	-1.7	0.698	-3.7	i
13	CCOC(=O)CSc1nc(C(C)(C)C)cc(C(F)(F)F)c1C#N	-0.2	0.6%	-1.6	.	.	.	0.73	.	.
14	CCN(CCC(=O)Nc1cc(OC)cc(OC)c1)Cc1ccccc1	2.2	3.4%	30.9	.	.	.	0.719	.	.
15	COc1ccc(Nc2nc3ccccc3nc2-n2nc(C)cc2C)cc1	0.1	69.0%	-1.0	.	.	.	0.759	.	.
16	C=C1CCN([C@@H](CC(C)C)C(=O)NCc2ccc(Cl)cc2)S(=O)(=O)c2ccccc21	0.1	.	0.4	-31.8	-8.6	-11.9	.	1.3	i

# Overlap with the part before: 2 compounds, followed by the next part.
no.	Structure	HNF4A DNA FP	Vif A3G	ALR inh	Ecoli rRNA inh OD600	Ecoli rRNA inh	Ecoli rRNA inh RFP	Ecoli growth	AF4-AF9 inh	FGF22 binding
15	COc1ccc(Nc2nc3ccccc3nc2-n2nc(C)cc2C)cc1	0.1	69.0%	-1.0	.	.	.	0.759	.	.
16	C=C1CCN([C@@H](CC(C)C)C(=O)NCc2ccc(Cl)cc2)S(=O)(=O)c2ccccc21	0.1	.	0.4	-31.8	-8.6	-11.9	.	1.3	i
17	Cc1ccc(S(=O)(=O)N2CCCC(C(=O)NCC(C)C)C2)cc1 (stereo not drawn)	-4.1	16.0%	8.0	1.5	7.7	-0.8	0.693	3.7	i
18	CN(C)c1ccc(C2=NOC(CN3C(=O)c4ccccc4S3(=O)=O)C2)cc1 (stereo not drawn)	1.4	7.4%	-9.9	.	.	.	0.693	.	.
19	C[C@H]1CN([C@@H](C)CO)C(=O)c2cc(-c3ccccc3)cnc2O[C@@H]1CN(C)Cc1ccccn1	.	.	.	8.0	-2.9	-4.3	.	-15.3	i
20	COCCCNC(=S)N/N=C/c1ccccc1O	0.5	.	45.6	5.3	3.0	-2.6	.	0.9	i
21	CCN1CCCC1CNC(=O)C(=O)NC (stereo not drawn)	2.7	-6.8%	-3.5	8.7	8.5	-0.6	0.705	-1.3	i
22	C[C@H](CO)N1C[C@H](C)[C@H](CN(C)S(=O)(=O)c2ccc(C(F)(F)F)cc2)OCc2ccccc2-c2ccccc2C1=O	.	.	.	-9.9	-0.4	0.9	.	0.7	i
23	COc1ccc(CCNC(=O)C2CCN(C(=O)NC3CCCCC3)CC2)cc1	0.3	12.6%	-9.9	.	.	.	0.722	.	.
24	COc1cccc(NC(=O)[C@H](C)NC(=O)C2CCN(S(=O)(=O)c3ccc(C)cc3)CC2)c1	1.9	9.8%	-13.7	-8.4	0.4	-2.2	0.691	6.4	i
25	COc1ccc(C2N3CC4(C)CN2CC(C)(C3)C4=O)cc1OC (stereo not drawn)	0.2	6.0%	-7.9	11.7	8.2	0.5	0.776	-0.2	.
26	C[C@@H]1CN([C@H](C)CO)C(=O)c2cc(NC(=O)CCC(F)(F)F)ccc2O[C@H]1CN(C)S(=O)(=O)c1ccc(F)cc1	.	.	.	4.2	0.4	0.4	.	-1.9	i
27	Cn1c2ccccc2c2cc(/C=N/NC(=O)c3cc(O)cc(O)c3)ccc21	-15.5	.	1.7	-14.6	-13.4	-5.6	.	1.7	i
28	CCOCc1c(C(=O)N2CCN(CCOc3ccc(Cl)cc3)CC2)oc2ccccc12	-1.0	-4.4%	.	-53.2	-23.5	1.9	0.625	-2.4	i
29	CCOC(=O)c1sc(C)c2c1NC(C)(c1cccs1)NC2=O (stereo not drawn)	-3.8	-10.6%	-7.1	.	.	.	0.674	.	.
30	O=C(CN1CCCCC1)N/N=C/c1cccc(Cl)c1	-2.5	-8.7%	-10.8	15.7	16.9	1.2	.	3.8	i
31	O=C(N/N=C/c1ccccn1)c1cccc(NC(=O)c2ccc(Cl)cc2)c1	1.9	-1.3%	-0.9	-9.2	-12.4	-2.7	.	-6.8	i
32	O=C(C1CC(=O)N(c2ccccc2)C1)N1CCN(c2ccccc2)CC1 (stereo not drawn)	1.2	.	68.7	2.2	3.8	1.8	0.662	-1.3	i
33	CC(C)CCNC(=O)C1CCN(C(=O)N(C)C)CC1	-2.7	-3.2%	-13.0	14.3	13.2	-3.2	0.668	4.0	i
34	O=C(N/N=C/c1cccc(OCC(=O)N2CCCC2)c1)C(=O)Nc1ccccc1F	0.3	22.1%	-5.5	11.6	-2.7	-0.1	.	1.6	i
35	Fc1cccc(Cl)c1CSc1nnc(CNc2ccccc2)o1	-1.3	-3.7%	20.5	-74.3	-55.6	-22.1	0.682	-3.0	i
36	COc1ccc(-c2cc(CN3C(=O)c4ccccc4C3=O)on2)cc1	0.7	.	-3.0	9.2	3.4	8.0	0.685	-7.0	i
37	O=C1C(=O)c2ccc(-c3ccccc3)cc2-c2ccccc21	1.3	?	-21.1	.	.	.	0.676	.	.
38	Clc1ccc(SCc2cn3ccccc3n2)cc1	0.8	16.3%	-12.5	-20.6*	-27.8*	-0.3*	0.622	-6.4	i
39	O=[N+]([O-])/C(C(Cl)=C(Cl)Cl)=C(/Sc1ccccc1)N1CCCCC1	1.8	-0.1%	92.2*	.	.	.	0.67	9.4	i
40	Cc1cccc(C)c1-n1nnnc1C(c1ccnc2ccccc12)N1CCCC1 (stereo not drawn)	5.3	.	.	15.1	16.2	1.5	.	-1.3	i
41	N#Cc1ccc(-c2csc(NC(=O)c3cc(-c4cccs4)nc4ccccc34)n2)cc1	3.1	-1.4%	.	10.6	11.1	0.8	0.735	-13.9	i
42	CC(=O)[C@H]1[C@H]([C@H](O)[C@H](O)CO)O[C@](O)(C(=O)O)C[C@@H]1O	3.1	.	2.5	.	.	.	0.697	-3.1	i
43	Cc1ccnc2nc(C(=O)OCCOc3ccccc3)nn12	1.8	11.6%	5.8	6.9	1.5	-1.9	0.727	.	.
44	O=[N+]([O-])c1ccc(N2N=C(c3ccccc3)CC2c2ccccc2O)cc1 (stereo not drawn)	86.2*	.	14.1	-16.6	-9.4	11.3	.	-0.1	i
45	C=CCn1c(SCC(=O)c2ccc(OC)cc2)nnc1-c1ccc2c(c1)OCO2	4.0	-4.2%	97.9*	-31.6	-27.4	-2.9	0.733	-0.6	i
46	CCN(CC)S(=O)(=O)c1ccc(S(=O)(=O)N(Cc2ccccn2)Cc2ccco2)cc1	0.9	?	-2.1	-1.5	-0.7	-3.2	0.657	0.2	i
47	CC(=O)c1cccc(-c2ccnc3c2CC(C(=O)NCC2CCOCC2)O3)c1 (stereo not drawn)	-2.0	.	.	5.3	12.2	1.8	.	0.6	i
48	CCN1[C@@H]2Cn3c(ccc(C4=CCCC4)c3=O)[C@H]1[C@@H](C(=O)N1CCc3ccccc3C1)[C@@H]2CO	.	.	.	-3.1	-1.9	2.3	.	1.8	i
49	O=C1CSc2ccc(C(=O)NCC(c3ccco3)N3CCCCC3)cc2N1 (stereo not drawn)	-1.3	-5.2%	.	6.0	6.2	1.6	0.72	-1.4	i
50	Cc1ccc2nc3n(c(=O)c2c1)-c1ccccc1C(=O)NC3Cc1ccccc1 (stereo not drawn)	.	.	-2.4	-15.1	-10.9	9.7	.	6.3	i
51	CCOC(=O)c1c(NC(NC(C)=O)C(Cl)(Cl)Cl)sc2c1CCCC2 (stereo not drawn)	6.2	.	7.0	.	.	.	0.722	3.6	i
52	Cc1cccc(OCCC(=O)NNC(=O)c2ccoc2C)c1	-1.7	-0.9%	-2.3	7.5	2.0	1.6	0.672	-1.4	i
53	Cn1nc(C(F)(F)F)c(CO)c1Sc1ccc(F)cc1	1.5	.	-18.8	-0.4	9.2	0.4	0.651	0.2	.
54	N#Cc1nc(-c2cccs2)oc1NCCc1ccccc1	0.0	-6.1%	27.3	.	.	.	0.668	.	.
55	O=C(c1ccccn1)N1CC2(C1)[C@H](c1ccccc1)[C@H](CO)N2C(=O)C1CC1	.	.	.	5.8	2.6	-3.4	.	0.3	i
56	O=C(CC(F)(F)F)N1C[C@H]2[C@@H](c3ccccc31)[C@H](CO)N2C(=O)CN1CCOCC1	.	.	.	17.4	3.7	-5.0	.	0.9	i
57	COc1cc(C=NNC(=O)C(=O)Nc2cccc(Cl)c2)cc(OC)c1O	3.7	-2.6%	.	6.6	-18.1	0.0	.	0.0	i
58	OCCC#Cc1c(-c2ccsc2)sc2ccccc12	3.5	.	-16.8	-74.8	-47.8	-29.8	0.646	1.1	i
59	COc1cc(N(Cc2ccccc2)Cc2ccccc2)c2ncn(C(C)C)c2c1	-2.5	.	9.7	10.1	-0.3	-2.1	0.697	7.1	i
60	COc1cc(C(=O)Nc2cccc(S(=O)(=O)NCc3ccco3)c2)cc(OC)c1OC	2.9	-0.5%	-9.7	.	.	.	0.695	7.8	i
61	CC(=O)Nc1ccc(NC(=O)C(C)OC(=O)c2ccccc2C(=O)c2ccc(Cl)c([N+](=O)[O-])c2)cc1 (stereo not drawn)	-1.2	12.6%	.	12.1	7.9	0.9	0.72	0.8	i
62	O=C(/C=C/c1ccc(OCCCF)cc1)NCc1ccc(Cl)cc1	2.4	?	6.5	.	.	.	0.709	.	.
63	CC(C)CNC(=S)N1CCC(NC(=O)C23CC4CC(CC(C4)C2)C3)CC1	-4.8	-5.3%	-12.1	.	.	.	0.736	.	.
64	Nc1ccn(CC(=O)NCc2ccc3c(c2)OCO3)c(=O)n1	-4.2	.	4.8	20.0	26.5	-0.3	0.706	-14.5	i
65	Cc1ccc(NC(=O)c2ccc3nc[nH]c3c2)c(O)c1	5.2	.	31.5	-13.0	0.6	3.1	0.701	-7.1	i
